Assay outcomes deposited in PubChem by Fisher Drug Discovery Resource Center.
NPYLR7 ag – agonists of mosquito NPYLR7 receptor, primary screen, cell-based, Aedes aegypti, calcium fluorescence, mosquito biting behavior; Aedes aegypti neuropeptide Y-like receptor 7 (NPYLR7); HEK293T NPYLR7/Galpha15, GCaMP6s calcium fluorescence; activation, % at 10 µM; 270,000 tested, 0.15% active; in the data active means activation above about 40%;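 further: 0% = vehicle and 100% = reference agonist at the receptor; some compounds past the cut are filed as inactive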
NPYLR7 ag max-min – recorded beside NPYLR7 ag, whose call it bears; activation, %; measured here: Max-Min RFU normalised activation; some inactives read as strong as hits;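 span of the calcium signal over five minutes; 0% = vehicle and 100% = native peptide agonist; compound fluorescence can raise it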
Starred values were filed as active, the others as inactive.

SMILES | NPYLR7 ag | NPYLR7 ag max-min
O=C(Nc1nc(C2CC2)cs1)C1CCN(C(=O)C2CC2)CC1 | 5 | 2
COc1ccc(OC)c(S(=O)(=O)Nc2ccc(C)c(Cl)c2)c1 | 14 | 9
OCCOc1cccc(CN2CCc3c([nH]c4ccccc34)C2c2ccccc2F)c1 (stereo unspecified) | -5 | -7
CCCNC(=O)COc1nc(Cc2ccc(F)cc2)no1 | 8 | 7
Cc1nc2ccc(C(=O)NC3CCN(C)CC3)cn2c1N(C)CC1CCCCC1 | -4 | -10
COc1ccc(-c2nc(-c3ccccc3Cl)no2)cc1OC | -2 | -6
O=C(CSc1ccc(-c2ccccc2)nn1)NC1CCCCC1 | 0 | -1
CCCCN(CC(=O)N(CCc1c[nH]c2ccccc12)Cc1ccc(OC)c(OC)c1)C(=O)Cc1ccc(OC)cc1 | 5 | 17
Cc1cc(C)c2c3c(sc2n1)C1(CCOCC1)C(C#N)C(=N)O3 (stereo unspecified) | -3 | -4
CN(C)S(=O)(=O)c1ccc(C(=O)NCc2n[nH]c(=S)n2-c2ccc(Cl)c(Cl)c2)cc1 | 0 | -3
COCCN(Cc1cc(NC(=O)NC(C)C)ccc1N(C)C)C(=O)Cc1cccs1 | -3 | 11
O=C1CN(CCCNc2ncc(F)c(N3CCOCC3)n2)CCN1 | -12 | -16
Cc1nc(-c2ccc(NS(=O)(=O)c3ccc(Cl)s3)cc2)cc(=O)[nH]1 | 8 | 6
COCC(=O)N1CCN(c2cc(Oc3cccc(F)c3)ncn2)CC1 | 9 | 2
c1ccc(C2=NN(c3ccccc3)C(c3ccc4nccnc4c3)C2)cc1 (stereo unspecified) | -1 | 17
CC(C)C(NC(=O)N1CCN(C(=O)C2CC2)CC1)c1cccs1 (stereo unspecified) | 6 | 3
COC(=O)c1ccc(C2c3c(C)nn(-c4ccccc4)c3OC(=N)C2C#N)cc1 (stereo unspecified) | -5 | -10
O=C(/C=C/c1ccccc1)NCCNc1ccc(Nc2cccnc2)nn1 | 0 | 0
CCCc1nc(N2CCc3c(c(CO)nn3C)C2)c2cnn(C)c2n1 | -1 | -3
COc1ccccc1C(=O)NCCOc1ccc2nnc(-c3ccccc3OC)n2n1 | -7 | -12
COc1ccc(OC)c(/C=C/C(=O)Nc2cc(F)ccc2C)c1 | 8 | 4
COc1ccc(NC(=O)/C(=C/c2ccco2)NC(=O)c2ccc(Br)o2)cc1 | 2 | 1
COC1CCN(C(=O)Nc2cccc(C#N)c2)CC(=O)N(C)c2ccccc21 (stereo unspecified) | -6 | -1
CC(C)N(CCO)Cc1ccc(Br)cc1 | 8 | 7
COC1CCCN(C(=O)c2ccc(OC3CCN(C(=O)C4CC4)CC3)cc2)C1 (stereo unspecified) | 1 | -3
c1cncc(-c2nc(Oc3cccc4ccccc34)c3ccccc3n2)c1 | 2 | -1
COc1cc(/C=N\NC(=O)c2cc(C)nc3ccccc23)ccc1O | 10 | 17
O=c1ccc(-c2ccccc2)nn1CCCNS(=O)(=O)c1ccc2c(c1)CCCC2 | -1 | -2
CC(C)C(NS(=O)(=O)c1ccccc1F)C(=O)N(C)Cc1ccc2c(c1)OCO2 (stereo unspecified) | 6 | 0
O=C(CN1C(=O)c2ccccc2C1=O)Nc1ccc(Cl)cc1 | 7 | 6
CSc1ccc(NC(=O)C2CCCC2)nn1 | -1 | -1
Cc1cc(C)n(CC(O)COc2ccc(-c3ccccc3)cc2)n1 (stereo unspecified) | -8 | -13
CCSc1ccc2nnc(CCNC(=O)c3ccccc3)n2n1 | 4 | -6
COc1cc(OC)cc(C(=O)N2CCN(C(C(=O)NCCc3ccccc3)C3CCCC3)CC2)c1 (stereo unspecified) | -2 | -1
CCc1cc2c(NCC3CCS(=O)(=O)C3)ncnc2s1 (stereo unspecified) | 1 | 1
COc1c(C(=O)NC(C)c2ccc(F)cc2F)c(C)nn1C (stereo unspecified) | 0 | 21
CCCCN(CC(=O)N(CCc1c[nH]c2ccccc12)Cc1ccc(F)cc1)C(=O)c1ccc(OC)cc1OC | -10 | -6
O=C(CN1CCc2ccccc21)NC(=O)NCc1ccccc1 | 8 | 11
O=C(NCCn1ncc2c(=O)n(Cc3ccccc3)cnc21)c1cccc(C(F)(F)F)c1 | -4 | -10
Cc1cc(C)c(-c2cc(C(=O)NCCC(=O)O)no2)c(C)c1 | 12 | 9
COc1ccc(C2CC(c3ccccc3F)=NN2C(=O)CN2CCC3(CC2)OCCO3)c(OC)c1 (stereo unspecified) | -4 | 3
Cn1ccnc1Sc1ccc(NC(=O)C2CCCC2)cc1 | -3 | -4
COC(=O)CCCC(=O)N1CCN(c2nccc(-c3cccc(C(F)(F)F)c3)n2)CC1 | -8 | -10
Cn1cnc(-c2ccccc2)c1-c1cccc(Cn2cccn2)c1 | 1 | -1
Cc1cc(-c2n[nH]c(=O)n2CCc2ccc(F)cc2)n(C)n1 | -2 | -3
CCN(CC)C(=O)CN(c1ccc(C)cc1)S(=O)(=O)c1ccc(SC)cc1 | -7 | -10
CN(C)c1nc2nonc2nc1NC1CCC1 | 19 | 6
O=C(Nc1ccc(F)c(Cl)c1)c1cc2ccccc2oc1=O | -2 | 0
CSc1ccc(NC(=O)N2CCN(c3nc(C4CC4)nc4sc(C)c(C)c34)CC2)cc1 | 7 | 15
CCOC(=O)c1c(NC(C)=O)sc2c1CCC(C(C)(C)C)C2 (stereo unspecified) | 7 | 1
CCOC(=O)c1ccc2c(c1)nc(SCc1cccc(SC(F)(F)F)c1)n2Cc1cccc(F)c1 | 2 | -3
c1csc(-c2csc(N3CCCC3)n2)c1 | 3 | 11
CS(=O)(=O)c1ccc(-c2cncc(Nc3ccc(F)c(Cl)c3)c2)cc1 | -10 | -12
COc1ccc(C(=O)C2CCN(C(C)C(=O)NCC(C)C)CC2)cc1 (stereo unspecified) | 9 | 5
COc1cc(C2c3c(oc4ccccc4c3=O)C(=O)N2Cc2ccccc2Cl)ccc1O (stereo unspecified) | 3 | 6
Cc1nn(CC(C)C)c(C)c1CC(=O)NCCOc1ccc2c(c1)OCO2 | -1 | 1
COc1ccc(C2=CCN(C(=O)c3csc(NC(C)=O)n3)CC2)cc1 | 0 | 0
Cc1nn2cc(CNC(=O)CN3CCOc4ccccc4C3)nc2s1 | 1 | -12
CCc1ccc(S(=O)(=O)NCc2nnnn2C2CCCCC2)s1 | 1 | -1
COc1cc(OC)c(NS(=O)(=O)c2cccc(Cl)c2)c(C(=O)O)c1 | 4 | 5

Further compounds follow:
SMILES | NPYLR7 ag | NPYLR7 ag max-min
O=C(c1ccc(NCCN2CCN(c3cccc(C(F)(F)F)c3)CC2)nc1)N1CCCC1 | 10 | 3
CSc1cccc(NC(=O)C(CC(C)C)NC(=O)c2ccccc2C)c1 (stereo unspecified) | 2 | -1
COc1ccc(-n2c(Cc3ccccc3)nnc2SCCCCC(=O)N2CCN(c3ccccc3OC)CC2)cc1 | -5 | -1
Cc1cc(C(=O)CSc2nnc(C3CC3)n2C)c(C)n1CC(F)(F)F | -3 | -6
NC(=O)CN(C(=O)CC12CC3CC(CC(C3)C1)C2)C1CCCC1 | -8 | 491
O=C(NNS(=O)(=O)c1c(Cl)cccc1Cl)c1ccc2c(c1)OCCO2 | -8 | -12
CCC(C(=O)NCC1CCN(c2nc(Cc3ccc(C)cc3)ns2)CC1)c1ccccc1 (stereo unspecified) | -6 | 1
CCOC(=O)c1ccc(NC2=CC(C)(C(=O)OCC)N(c3ccc(C(=O)OCC)cc3)C2=O)cc1 (stereo unspecified) | -7 | -10
O=C(Cn1cnc([N+](=O)[O-])n1)N/N=C\c1cc(Br)cc([N+](=O)[O-])c1O | -11 | -15
COC(=O)CN(C)C(=O)CC(c1ccccc1)c1ccc(OC)cc1 (stereo unspecified) | 1 | -5
Cc1nnsc1CN(C)C(=O)c1ccccc1-c1ncn[nH]1 | 7 | 2
CC[C@H](O)[C@@H]1N(C(=O)c2cccnc2SC)C2CCC1(O)CC2 | 0 | 12
Nc1n[nH]c(CN2C(=O)c3ccccc3C2=O)n1 | 0 | 13
O=c1cccc(-c2ccc(Br)cc2)o1 | 1 | -1
Cc1cc(C)c(NC(=O)c2c(-c3ccccc3Cl)noc2C)c(C)c1 | -1 | -3
CC(C)(O)C#Cc1ccc(-c2nccn2-c2cccc(N3CCNC3=O)c2)cc1 | -2 | -5
CS(=O)(=O)c1nc(S(=O)(=O)c2ccc(Cl)cc2)c(N2CCCC2)s1 | 2 | 0
COc1cc(C)ccc1OCc1nc(C(=O)NCC(C)C)co1 | 1 | -1
Fc1ccc(Oc2cc(N3CCC(N4CCCCC4)CC3)ncn2)cc1F | -5 | 3
COc1cc2c(cc1OC)C(c1ccccc1)N(CC(N)=O)CC2 (stereo unspecified) | -13 | -18
COc1ccc(OCc2n[nH]c(=S)n2C)cc1 | 2 | 0
O=C(Nc1cc(-n2cccc2)ccc1F)N[C@@H]1C=C[C@H](CO)C1 | 5 | 3
CCC(C(=O)NCc1ccco1)n1c(=O)n(-c2ccccc2F)c(=O)c2ccccc21 (stereo unspecified) | 28 | 30
CC(C)C(C)NC(=O)C1CCNCC1 (stereo unspecified) | -1 | -2

14 entries out of the list, arranged by SMILES length, low to high:
SMILES | NPYLR7 ag | NPYLR7 ag max-min
CC(C)C(C)NC(=O)C1CCNCC1 (stereo unspecified) | -1 | -2
O=c1cccc(-c2ccc(Br)cc2)o1 | 1 | -1
COc1ccc(OCc2n[nH]c(=S)n2C)cc1 | 2 | 0
Nc1n[nH]c(CN2C(=O)c3ccccc3C2=O)n1 | 0 | 13
COc1cc(C)ccc1OCc1nc(C(=O)NCC(C)C)co1 | 1 | -1
Cc1nnsc1CN(C)C(=O)c1ccccc1-c1ncn[nH]1 | 7 | 2
COc1cc2c(cc1OC)C(c1ccccc1)N(CC(N)=O)CC2 (stereo unspecified) | -13 | -18
Fc1ccc(Oc2cc(N3CCC(N4CCCCC4)CC3)ncn2)cc1F | -5 | 3
Cc1cc(C)c(NC(=O)c2c(-c3ccccc3Cl)noc2C)c(C)c1 | -1 | -3
CC[C@H](O)[C@@H]1N(C(=O)c2cccnc2SC)C2CCC1(O)CC2 | 0 | 12
CC(C)(O)C#Cc1ccc(-c2nccn2-c2cccc(N3CCNC3=O)c2)cc1 | -2 | -5
CCC(C(=O)NCc1ccco1)n1c(=O)n(-c2ccccc2F)c(=O)c2ccccc21 (stereo unspecified) | 28 | 30
O=C(Cn1cnc([N+](=O)[O-])n1)N/N=C\c1cc(Br)cc([N+](=O)[O-])c1O | -11 | -15
CCOC(=O)c1ccc(NC2=CC(C)(C(=O)OCC)N(c3ccc(C(=O)OCC)cc3)C2=O)cc1 (stereo unspecified) | -7 | -10

Next section.
SMILES | NPYLR7 ag | NPYLR7 ag max-min
CC1=CC2(C)C(OC1=O)C1OC(=O)C(C)=CC12C (stereo unspecified) | -7 | -9
O=C(c1ccc(F)c(F)c1)N1CCN(c2nccc(-c3ccc(Oc4ccccc4)cc3)n2)CC1 | 13 | 9
COc1ccc(-c2cccc(-c3cccc(NC(=O)c4ccc(C(C)(C)C)cc4)c3)n2)cc1 | 4 | -2
CCN(Cc1ccccc1)c1nc(-c2ccccc2C(F)(F)F)nc2ccccc12 | 5 | 11
CN1CCCN(c2cc(-c3cccc4ccccc34)nc3ccnn23)CC1 | -5 | -8
CCN(CC)c1ncccc1CNC(=O)c1ccc(=O)n(C)c1 | 1 | -1
CN(C)CCCN(C(=O)c1ccco1)c1nc2cc3c(cc2s1)OCO3 | 3 | 0
CCCNC(=O)c1c(O)nc2sccn2c1=O | -2 | 9
COc1cc(C(=O)Nc2cccc(-c3nc4cc(Cl)ccc4o3)c2C)cc(OC)c1OC | -5 | -6
COc1cc2c(cc1OC)CN(c1cc(C(=O)N3CCC(Cc4ccccc4)CC3)c3ccccc3n1)CC2 | 4 | 1
CCCCc1ccc(C(=O)Nc2ccc(N3CCCC3)c(C(=O)NCc3ccccc3)c2)cc1 | 7 | 10
O=C(NCc1ccc(OC(F)(F)F)cc1)NCc1ccc(N2CCCC2=O)cc1 | 3 | 1
N#C/C(=C\N1CCC(C(N)=O)CC1)C(=O)Nc1ccc(F)cc1 | 6 | 4
COc1ccc(OS(=O)(=O)c2cn(C)c(=O)n(C)c2=O)cc1 | 0 | -2
CCCS(=O)(=O)N1CCN(CCN2C(=O)C(C)SC2c2ccc(C(F)(F)F)cc2)CC1 (stereo unspecified) | -5 | -2
COc1ccc2cc(CN(C)C(=O)NC(C)C3CCCO3)ccc2c1 (stereo unspecified) | 0 | -2
Cc1ccc(C(NC(=O)C2CCN(CCOc3ccc(Cl)cc3Cl)CC2)c2ccccn2)cc1 (stereo unspecified) | -8 | 0
O=S1(=O)N=CN(Cc2cccc(F)c2)c2ccccc21 | 0 | -2
CCc1nn(-c2ccc(OC)cc2)c(CC)c1C(=O)NCc1ccco1 | 26 | 21
O=C(CCCc1ccc2[nH]c(=O)[nH]c2c1)OCc1cccc(Cl)c1 | -1 | -3
Cc1cccc(-c2nc3scc(CCNS(=O)(=O)c4ccc(Br)cc4)n3n2)c1 | -15 | -13
CCc1nc2ccc(C(=O)N3CCN(C)CC3)cn2c1N(C)C(=O)C1CCCCC1 | -7 | -14
Cc1cccn2c(=O)c3cc(C(=O)N4CCN(C(=O)c5ccco5)CC4)n(C)c3nc12 | 1 | -3
O=C(NCC1CCC1)[C@@H]1Cc2ccccc2CN1S(=O)(=O)c1cccs1 | 7 | 7
COc1cccc(CN2CCN(c3cc(C)ccc3F)C(=O)C2C)c1 (stereo unspecified) | -2 | 2
CCC(C(=O)Nc1nnc(SCC(=O)c2ccc(C)cc2)s1)c1ccccc1 (stereo unspecified) | -6 | 4
COc1cccc(-c2cc(C(=O)N3CCN(c4cccc(C(F)(F)F)c4)CC3)nc3cc(-c4ccccc4)nn23)c1 | 3 | 5
COc1cccc(OCCCn2c(C(C)NC(=O)c3ccco3)nc3ccccc32)c1 (stereo unspecified) | 0 | 4
COc1cccc(NC(=O)NCCNc2ccc(Nc3cc(C)ccn3)nn2)c1 | -3 | -6

This is a subset, so the mix of outcomes need not match the whole.
